Marburg entry inh – blocks Marburg virus binding to or entry into cells; 300,000 compounds, 1.8% hits; AID 540276; Marburg virus pseudotyped entry inhibition, cell reporter; control for the full effect not named in the record; about a third of the inactives were read at about 46 µM; Potency, µM (titrated, usually from 37.8 µM), inactives show top-dose activity change, negative = inhibition, actives largely listed as inhibitors; active = well fitted inhibition curve with a large enough effect; inconclusive = small, poorly fitted or top-dose-only effect, or effect the other way; inactive = flat fitted curve, though single readings scatter; tested in HEK293 cells; about a fifth of its hits are not listed in these tables; also: % is scaled to controls: 0 for no effect and ±100 for the full control effect; luciferase read-out
Cruzain inh noDet – inhibitors of Trypanosoma cruzi cruzain without detergent. Potency, µM, for inactives: max response, negative = inhibition, most hits filed as inhibitors. AID 1476. 200,000 compounds, 2.3% hits. purified cruzain, Z-FR-AMC fluorescence, no detergent. P25779;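 also: plate controls were enzyme without inhibitor for no effect and buffer without enzyme for full effect; nearly all actives have a fitted effect of over 40% in size; top concentration of the series not given in the record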
Target sequence (P25779 123-467 limits assumed): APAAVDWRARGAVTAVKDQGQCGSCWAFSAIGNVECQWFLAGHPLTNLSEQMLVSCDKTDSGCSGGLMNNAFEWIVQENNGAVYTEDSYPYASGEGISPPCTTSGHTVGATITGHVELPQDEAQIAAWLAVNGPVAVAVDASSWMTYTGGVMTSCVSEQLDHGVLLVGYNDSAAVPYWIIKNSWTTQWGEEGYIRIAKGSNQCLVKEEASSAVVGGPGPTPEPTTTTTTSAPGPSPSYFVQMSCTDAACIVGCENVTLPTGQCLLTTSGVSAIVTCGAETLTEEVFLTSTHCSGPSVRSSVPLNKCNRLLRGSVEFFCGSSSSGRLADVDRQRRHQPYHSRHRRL
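Detergent-free condition (0.00005% Triton X-100) in acetate buffer pH 5.5 with DTT. 1.5 nM enzyme and compound were pre-mixed 15 min, then 2 uM Z-FR-AMC substrate added; reaction progress from fluorescence change between first and third reads (60 s).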
RE007 growth inh – less growth of the S. pombe RE007 Vpr strain; S. pombe RE007 Vpr strain, BacTiter-Glo ATP luminescence, 24 h; control for the full effect not named in the record; 360,000 compounds, 0.21% hits; AID 651644; Potency, µM (titrated, usually from 92.2 µM), for inactives: at the top dose activity change, negative = less growth; active = well fitted falling curve with a large enough effect; inconclusive = small, poorly fitted or top-dose-only effect; inactive = no such curve, though single readings can be large or run the other way;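 also: % is scaled to controls: 0 for no effect and ±100 for the full control effect; nearly all actives have a fitted effect of over 50% in size; the assay follows cell death caused by Vpr and the record does not say whether a fall means rescue or toxicity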
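Fission yeast RE007 carrying one integrated HIV-1 vpr copy, seeded at OD 0.01 in PMG+AL medium with 23 nL pinned compound. Grown 24 h at 30 degrees; viability read by BacTiter-Glo luminescence after 5 min.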
SARS PLP yeast – blocks SARS-CoV papain-like protease in a yeast assay; S. cerevisiae expressing SARS-CoV PLpro, growth rescue; control for the full effect not named in the record; Potency, µM (doses to about 32.9 µM), for inactives: at the top dose activity, positive = growth rescue; 330,000 compounds, 0.19% hits; active means well fitted rising curve with a large enough effect; inconclusive means small, poorly fitted or top-dose-only effect; inactive means no such curve, though single readings can be large or run the other way; also: 0% is about no effect; nearly all actives have a fitted effect of over 55% in size; growth read by luminescence after 48 h
2A StopGo – lowers the luciferase signal of an FMDV 2A StopGo reporter. human cells with a luciferase reporter of 2A StopGo recoding; control for the full effect not named in the record. Potency, µM (top dose mostly 57.9 µM), inactives show at the top dose signal change, negative = less light. AID 1159524. 410,000 compounds, 1.2% hits; active = well fitted falling curve with a large enough effect; inconclusive = small, poorly fitted or top-dose-only effect; inactive = no such curve, though single readings can be large or run the other way; tested in HEK293T cells; also: % is scaled to controls: 0 for no effect and ±100 for the full control effect; nearly all actives have a fitted effect of over 45% in size; luciferase light after 4 h
Cruzain inh Det – blocks cruzain activity in presence of Triton detergent; 200,000 compounds, 0.43% hits; P25779; purified cruzain, Z-FR-AMC fluorescence, 0.01% Triton; Potency, µM, without a hit: max response, negative = inhibition, usual class: inhibitors;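 also: plate controls were neutral wells for no effect and buffer without enzyme for full effect; nearly all actives have a fitted effect of over 40% in size; top concentration of the series not given in the record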
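Purified cruzain (1.5 nM final) was preincubated with compounds for 15 min at room temperature in 100 mM sodium acetate pH 5.5, 5 mM DTT, 0.01% Triton X-100. Reaction started with 2 uM Z-FR-AMC; AMC fluorescence change over 60 s gave activity.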
Lassa entry inh – Lassa virus entry inhibition | Lassa virus pseudotype entry inhibition, cell reporter; control for the full effect not named in the record | Potency, µM (doses to about 37.9 µM), for inactives: at the top dose activity change, negative = inhibition, hits mostly inhibitors | 300,000 compounds, 1.2% hits | AID 540256; active means well fitted inhibition curve with a large enough effect; inconclusive means small, poorly fitted or top-dose-only effect, or effect the other way; inactive means flat fitted curve, though single readings scatter; tested in HEK293 cells; also: % is scaled to controls: 0 for no effect and ±100 for the full control effect; nearly all actives have a fitted effect of over 50% in size; luciferase read-out
NS1 function inh – inhibitors of influenza NS1 protein function. 270,000 compounds, 0.4% hits. S. cerevisiae slowed by influenza A NS1, growth recovery by OD600. AID 2326. Potency, µM (top dose mostly 46.1 µM), without a hit: at the top dose activity, positive = more growth; active means well fitted rising curve with a large enough effect; inconclusive means small, poorly fitted or top-dose-only effect; inactive means no such curve, though single readings can be large or run the other way; also: nearly all actives have a fitted effect of over 50% in size
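Read-out: OD600 growth recovery of NS1-expressing budding yeast. Cells grown overnight at 30C in -URA glucose medium, washed, resuspended and diluted 1:100 in 2% galactose assay medium, pH 6.0. Same strain lacking NS1 served as positive control.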
* marks the source's active call; other numbers are inactive results; ? = inconclusive; . = not tested or not shown; & = joins results of further samples; [ ] = remark or other dose. Unless noted, calls follow the shape of the dose curve; as a rule, active = well fitted curve in the direction sought with a large enough effect; inconclusive = small, poorly fitted or top-dose-only effect, or another doubt; inactive = no such curve, though single readings can be large; an effect the other way counts as inactive or inconclusive. Potency is read from the fitted curve at half-maximal effect.

#	molecule	Marburg entry inh	Cruzain inh noDet	RE007 growth inh	SARS PLP yeast	2A StopGo	Cruzain inh Det	Lassa entry inh	NS1 function inh
1	COC(=O)c1c(NC(=O)CN2CCN(c3ccccc3Cl)CC2)sc(C)c1C	-4%	?	-9%	-29%	-12%	-2.2%	-15%	14%
2	COC(=O)[C@H](C)NC(=O)NC1CCN(Cc2ccccc2)CC1	?	-1%	2%	-5%	20%	-3.2%	?	-16%
3	CCCCCc1cc(O)c2c3c(c(=O)oc2c1)CN(C)CC3	.	.	17%	-3%	10%	.	.	-4%
4	CCN(CC)CCCNC(=O)Cn1nc(N2CCN(c3ccccc3OC)CC2)ccc1=O	.	-10%	.	.	-7%	1.4%	?	.
5	Cc1cc(C)cc(NC(=O)Nc2ccc(-n3ccc(C(F)(F)F)n3)cc2)c1	?	.	3%	-1%	0%	.	?	11%
6	Cc1cc(C)cc(C(=O)NCC(=O)OCc2cc([N+](=O)[O-])cc3c2OCOC3)c1	-9%[46.1 µM]	-5%	7%	7%	-7%	-25%	0%	4%
7	COc1cccc(C2=NOC(C(=O)NCc3cccnc3)C2)c1 (configuration not stated)	-7%[46.1 µM]	.	13%	0%	-4%	.	-13%[46.1 µM]	3%
8	Cc1ccc(NC(=O)C2C3C=CC4(O3)C2C(=O)N(CCCN2CCCC(C)C2)C4C(=O)NC2CCCCC2)cc1 (configuration not stated)	-21%[46.1 µM]	.	9%	1%	7%	.	26%[46.1 µM]	-5%
9	COc1ccc(N=C(N(C)C)P(=O)(N(C)C)N(C)C)cc1	?	-11%	8%&-2%	2%	2%&-3%	0.8%	-1%[46.1 µM]	3%
10	O=C(CCn1ccc2cc(S(=O)(=O)N3CCCC3)ccc21)NCc1cccc(F)c1	.	4%	-1%	4%	-6%&-7%	-3.2%	0%[46.1 µM]	-1%
11	O=C(NN1CCOCC1)c1cccc(Cl)c1	.	.	12%	1%	-7%	.	.	11%
12	O=c1[nH]c2ccccc2c2ccc(Cl)cc12	3%	.	5%	.	-13%	.	-6%	.
13	O=C(NNC(=O)c1cnccc1C(F)(F)F)c1ccc(Cl)cc1	-4%	.	-18%	1%	-1%	.	-2%	0%
14	Cn1cc(C(=O)NCCc2ccccc2)c(=O)c2cc(S(=O)(=O)N3CCCCC3)ccc21	16%[46.1 µM]	-2%	.	.	-5%	0.0%	1%[46.1 µM]	.
15	CCOC(=O)Nc1ccc2c(c1)nc(CN1CCOCC1)n2C	19%	1%	-12%	4%	1%	8.0%	0%	8%
16	CN(CC(=O)Nc1ccc(F)cc1)C(=O)COC(=O)/C=C/c1cccs1	19%	.	-1%	1%	18%	.	9%	.
17	CC/C(=N\NC(=O)c1nnn(-c2nonc2N)c1CN(C)c1ccccc1)c1ccccc1	.	.	1%	-6%	-8%	.	.	20%
18	Cc1ccc(CN2C(=O)CCC2C(=O)NCCCN2CCC(C)CC2)cc1 (configuration not stated)	0%	-1%	1%	-2%	-25%	0.1%	16%	-3%
19	OC(c1ccccc1)(c1ccccc1)C1CN2CCC1CC2 (configuration not stated)	?	.	5%	8%	-14%	.	-15%	4%
20	CCc1cccc(C)c1NC(=O)CSc1nc2c(c(=O)[nH]1)CCC2	?	-9%	.	.	-7%	-4.2%	11%[46.1 µM]	.
21	CC(NC(=O)CSc1ncnc2nc[nH]c12)c1ccccc1 (configuration not stated)	4%	-5%	-9%	1%	5%	0.4%	?	-17%
22	Oc1ccccc1CNc1ncc(Br)cc1Br	-5%	-3%	35µM*	-25%	53%[activator]	-13%	2%	-51%
23	CC(C)(O)C(=O)NNC(=S)Nc1ccc(F)c(Cl)c1	-13%[46.1 µM]	.	-11%	3%	0%	.	9%	.
24	O=C1CC(C(=O)NCc2ccccc2)C2(CCCC2)O1 (configuration not stated)	26%	-6%	-8%	9%	.	5.5%	13%	1%
25	Cc1ccc(S(=O)(=O)NCC(=O)OCC(=O)N2CCc3ccccc32)cc1	-4%	10%	15%	-1%	4%	1.0%	14%	-11%
26	CC1(C)CC(=O)C2=C(C1)N(CCN1CCOCC1)C1=C(C(=O)CC(C)(C)C1)C2c1cccc(Cl)c1	?	?	8%	1%	12%	-3.0%	-19%	-7%
27	COCC(=O)NCCc1nc(-c2ccccc2)cs1	?	-7%	1%	-4%	-11%	2.0%	?	1%
28	CCCn1nc(C(=O)Nc2ccc3nc(N4CCOCC4)sc3c2)ccc1=O	?	.	-16%	1%	13µM*	.	?	.
29	COc1ccc(OC)c(NC(=O)c2cc(C3CC3)nc3c2c(C)nn3-c2ccc(C)cc2)c1	.	-3%	.	.	-8%	0.4%	24%[46.1 µM]	.
30	Cc1ccc(-n2c(=O)c3c(c4cc(C)ccc4n3C)n(CC(=O)Nc3cc(C)cc(C)c3)c2=O)cc1	.	2%	.	.	-14%	-1.6%	6%[46.1 µM]	.
31	O=C(COC(=O)c1ccccc1Br)Nc1nnc(-c2ccccc2)o1	21%	.	2%	1%	-10%	.	-1%	.
32	O=c1[nH]c2ccccc2n1CCCSc1cnc2ccccc2n1	4%	19%	3%	-8%	-15%	-5.3%	?	-71%
33	CCOC(=O)c1c(-c2ccc(C)cc2)csc1NC(=O)c1cc(-c2ccc(OC)cc2)on1	-3%[46.1 µM]	-10%	.	.	-12%	-0.2%	3%[46.1 µM]	.
34	O=C1NN(c2cccc(Br)c2)C(=O)/C1=C/c1ccc(-c2cc([N+](=O)[O-])ccc2O)o1	.	.	-12%	0%	-17%	.	.	3%
35	CC(C)(C)c1ccc(-c2nnc(SCCN3C(=O)c4ccccc4C3=O)o2)cc1	4%	18%	22%	1%	1%	-7.1%	1%	7%
36	COc1ccc(C2=NCCNC(C(F)(F)F)=C2)cc1	5%	.	-5%	-1%	-25%	.	12%	.
37	CCOC(=O)C1SC2(C(F)F)CC1(O)c1c(c(OC)c3occc3c1OC)O2 (configuration not stated)	19%	2%	-1%	1%	.	-7.0%	14%	-4%
38	CCOC(=O)Cc1csc(NC(=O)c2ccoc2C)n1	15%	-3%	-30%	-9%	2%	8.2%	9%	2%
39	CCOC(=O)CSc1nnc(CNC(=O)Cc2ccccc2)n1-c1ccccc1OC	0%	-9%	3%	8%	-2%	3.0%	17%	-1%
40	O=C(Nc1cccc(S(=O)(=O)N2CCCCC2)c1)c1cc([N+](=O)[O-])ccc1N1CCOCC1	?	.	-12%	10%	-9%	.	-21%[46.1 µM]	.
41	CCn1nc(C)cc1C(=O)NC1CCCc2c1cnn2-c1cc(F)cc(F)c1 (configuration not stated)	?	.	3%	-7%	-4%	.	?	-24%
42	CCOc1ccccc1N(CC)C(=O)c1cc2ccc3cccnc3c2[nH]1	.	8%	.	.	2%	-11%	-2%[46.1 µM]	.
43	CC(C)CCOc1ccc(C(=O)NCC(c2ccco2)N(C)C)cc1 (configuration not stated)	?	.	-7%	0%	2%	.	-14%[46.1 µM]	7%
44	N#CC1=C(O)C(c2ccccc2)n2c1nc(=O)c1ccccc12 (configuration not stated)	-8%	-5%	0%	15%	-24%	-9.4%	-5%	3%
45	O=C(COC(=O)c1cccc(F)c1)NCCC1=CCCCC1	-1%[46.1 µM]	.	-29%	-4%	-6%	.	-5%[46.1 µM]	.
46	Cc1ccc(C2NC(=S)NC3=C2N2CCC3CC2)cc1 (configuration not stated)	15%	-9%	-5%	-1%	-7%	7.6%	1%	14%
47	N#C/C(=C\c1ccc[nH]1)S(=O)(=O)c1ccccc1	23%	-13%	6%	-1%	24%	-13%	-3%	-11%
48	Cc1sc(NC(=O)CCCC(=O)O)c(C#N)c1C	-4%	-2%	-6%	-6%	7%	5.5%	4%	11%
49	CCN(CC(=O)Nc1ccc(NC(C)=O)cc1)C(=O)COc1ccc2ccccc2c1	-2%	.	5%	5%	-2%	.	?	.
50	Cc1ccc(OCC(=O)NCCNC(=O)c2ccccn2)cc1	17%[46.1 µM]	.	2%	-2%	0%	.	10%[46.1 µM]	0%

Next part.
#	molecule	Marburg entry inh	Cruzain inh noDet	RE007 growth inh	SARS PLP yeast	2A StopGo	Cruzain inh Det	Lassa entry inh	NS1 function inh
51	CC(C)(C)c1ccc(C(=O)NNC(=O)CCC(=O)Nc2ccccc2)cc1	.	.	11%	-6%	18%	.	.	14%
52	COc1cc(CN(C(=O)Nc2ccccc2)c2ccccn2)cc(OC)c1OC	-1%[46.1 µM]	-5%	.	.	47%[activator]	-0.5%	-2%[46.1 µM]	.
53	O=C(Nc1nnc(CCc2ccccc2)s1)c1cccs1	2%	?	-2%	-1%	56%[activator]	3.0%	26%	-13%
54	O=C(N1CCCCCC1)N1CCN(C(=O)N2CCCCC2)CC1	-2%	2%	-5%	3%	-13%	2.6%	-16%	?
55	O=C(Cc1cccc2ccccc12)Nc1nc(-c2cccc([N+](=O)[O-])c2)cs1	-13%	-66%	9%	1%	-2%	1.0%	-26%	10%
56	O=C(CSc1nnc(Cc2cccs2)n1Cc1ccco1)Nc1ccc(Cl)cc1Cl	-6%&-6%	-3%	-7%	-2%	?	-14%	1%	-62%

By substructure, those above containing bromine.
#	molecule	Marburg entry inh	Cruzain inh noDet	RE007 growth inh	SARS PLP yeast	2A StopGo	Cruzain inh Det	Lassa entry inh	NS1 function inh
22	Oc1ccccc1CNc1ncc(Br)cc1Br	-5%	-3%	35µM*	-25%	53%[activator]	-13%	2%	-51%
31	O=C(COC(=O)c1ccccc1Br)Nc1nnc(-c2ccccc2)o1	21%	.	2%	1%	-10%	.	-1%	.
34	O=C1NN(c2cccc(Br)c2)C(=O)/C1=C/c1ccc(-c2cc([N+](=O)[O-])ccc2O)o1	.	.	-12%	0%	-17%	.	.	3%

High-throughput results: PubChem BioAssay, National Center for Advancing Translational Sciences (NCATS)

This is a random part of the collection (roughly 4.7% active in at least one column).
